Assay outcomes (PubChem)
TRPV1 PAM – human TRPV1 potentiation | Q8NER1 | TRPV1-expressing cells, Fluo-8 calcium influx, capsaicin EC20 potentiation; host cell line not named in the record; control for the full effect not named in the record | potentiation, % at 8.33 µM | 320,000 compounds, 0.02% hits | AID 540277; active means potentiation above 80%; inconclusive means 30% to 80%; inactive means below 30%; note: 0% is about no effect
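Cells expressing TRPV1 were dye-loaded with Fluo-8 and read kinetically: 10 s baseline, 3 min after compound (agonist portion), then 2 min after EC20 capsaicin (allosteric enhancer portion). Calcium-bound dye fluorescence at 480/520 nm.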
gsp agonist – activates gsp, the McCune-Albright syndrome mutation; AID 624287; gsp mutant cells, cAMP HTRF, 30 min; control for the full effect not named in the record; 340,000 compounds, 0.13% hits; Potency, µM (doses to about 76.9 µM), for the others: top-dose activation (cAMP increase), usual class: activators; active = well fitted activation curve with a large enough effect; inconclusive = small, poorly fitted or top-dose-only effect, or another doubt; inactive = no such curve, though single readings can be large or run the other way; cell line not stated here;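 note: phosphodiesterase inhibitor Ro 20-1724 added with compounds to block cAMP breakdown; potency is the fitted concentration of half-maximal effect; nearly all actives have a fitted effect of over 60% in size; about a fifth of the inactives were tested at one dose only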
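Cells in DMEM/10% FBS with G418 were pretreated with compounds in DMSO plus […] (300 uM stock) for 30 min at 37C. cAMP was measured by HTRF (cAMP-d2 plus anti-cAMP antibody-K) after 30 min at room temperature.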
TRPML1 inh – human mucolipin-1 channel inhibition. Q9GZU1. TRPML1-inducible cells, Ca2+ dye fluorescence, FDSS; stronger effect = lower value; inhibition of EC80 agonist-evoked calcium signal. activity change, negative = inhibition, % (test concentration not listed). 390,000 compounds, 0.02% hits; in the data active means activity change below about -50%; inconclusive means about -30% to -50%; inactive means above about -30%;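 note: stimulus is agonist 54-4 at its EC80 concentration; % is set by controls: 0 for no effect and ±100 for the full control effect; compound concentration not given in the record; the text of the record puts the active cut at -80%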
Target sequence (Q9GZU1 whole entry, looked up): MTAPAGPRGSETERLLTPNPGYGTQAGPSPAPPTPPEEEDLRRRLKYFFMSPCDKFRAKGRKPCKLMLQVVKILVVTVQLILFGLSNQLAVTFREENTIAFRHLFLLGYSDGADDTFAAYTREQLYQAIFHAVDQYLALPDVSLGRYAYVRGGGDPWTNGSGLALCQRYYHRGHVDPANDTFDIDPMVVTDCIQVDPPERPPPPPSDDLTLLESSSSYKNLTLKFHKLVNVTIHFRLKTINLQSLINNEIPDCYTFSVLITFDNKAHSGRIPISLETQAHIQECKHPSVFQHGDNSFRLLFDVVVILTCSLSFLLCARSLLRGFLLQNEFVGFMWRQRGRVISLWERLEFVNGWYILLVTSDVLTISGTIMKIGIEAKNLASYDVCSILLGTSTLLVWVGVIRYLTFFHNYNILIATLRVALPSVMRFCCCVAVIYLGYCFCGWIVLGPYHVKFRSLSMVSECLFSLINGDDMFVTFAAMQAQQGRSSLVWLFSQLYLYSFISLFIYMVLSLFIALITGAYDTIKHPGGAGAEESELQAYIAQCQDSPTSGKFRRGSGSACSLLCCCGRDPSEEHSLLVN
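Tet-induced TRPML1-DL cells loaded with Ca8 no-wash calcium dye were read kinetically on FDSS. Compound addition was followed by EC80 agonist 54-4 (4 uM final); inhibition was read over 110 s.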
Sfp PPTase inh – inhibitors of Bacillus subtilis Sfp phosphopantetheinyl transferase | 310,000 compounds, 3.5% hits | Biochemical Sfp PPTase activity, qHTS | Q9F4F7 | Potency, µM, for inactives: max response, negative = inhibition, hits mostly inhibitors; active = well fitted inhibition curve with a large enough effect; inconclusive = small, poorly fitted or top-dose-only effect, or another doubt; inactive = no such curve, though single readings can be large or run the other way;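 note: the enzyme is Sfp with the accession as filed and its product quenches rhodamine fluorescence; potency is the fitted concentration of half-maximal effect; 0% = enzyme reaction without inhibitor and -100% = no enzyme wells; top concentration of the series not given in the record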
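Step 1, compound plus 15 nM Sfp-PPTase, 15 min, room temperature. Step 2, add rhodamine-CoA (5 uM) and BHQ-2-YbbR (12.5 uM). Step 3, read 525/598 nm fluorescence at 0 and 30 min.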
ClpP mod – qHTS Assay for Activators of ClpP. ATP-dependent Clp protease proteolytic subunit (Bacillus subtilis (strain 168)), P80244. purified B. subtilis ClpP, FRET peptide cleavage, 20 min. Potency, µM (highest dose often 57.5 µM), for the others: top-dose activity change, negative = active. 340,000 compounds, 1.9% hits. AID 651965, 2013; active = well fitted falling curve with a large enough effect; inconclusive = small, poorly fitted or top-dose-only effect; inactive = no such curve, though single readings can be large or run the other way; note: potency is the fitted concentration of half-maximal effect; the source files actives as falling curves though it sought activators and does not explain the sign; nearly all actives have a fitted effect of over 65% in size; many hits overshoot -100%
Target sequence (P80244 whole entry, looked up): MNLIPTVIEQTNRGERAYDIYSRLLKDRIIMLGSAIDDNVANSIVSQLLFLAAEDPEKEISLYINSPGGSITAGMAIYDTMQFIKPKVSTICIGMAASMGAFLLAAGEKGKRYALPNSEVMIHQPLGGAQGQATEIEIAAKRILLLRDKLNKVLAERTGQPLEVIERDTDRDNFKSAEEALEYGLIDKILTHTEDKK
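Purified B. subtilis ClpP, 10 microg/mL final in Tris/HCl pH8 with KCl, BSA, glycerol and Tween-20, cleaved an Abz/nitrotyrosine-quenched decapeptide. Fluorescence (ex 320, em 430) was read at 0 and 20 min at room temperature. Delta was normalized to 5.8 microM ADEP and DMSO/no-enzyme controls.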
gsp antagonist – antagonizes gsp, the McCune-Albright syndrome mutation. gsp-mutant cells, cAMP HTRF, 30 min; control for the full effect not named in the record. Potency, µM (doses to about 76.9 µM), for inactives: at the highest dose activity change, negative = inhibition, hits mostly inhibitors. 340,000 compounds, 0.4% hits. AID 624288; active = falling curve of any shape with a large fitted effect; inconclusive = falling curve, mostly with a smaller effect; inactive = flat or rising curve; cell line not stated here;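 note: intracellular cAMP measured with PDE inhibitor Ro 20-1724 present during compound exposure; potency is the fitted concentration of half-maximal effect; % is set by controls: 0 for no effect and ±100 for the full control effect; nearly all actives have a fitted effect of over 65% in size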
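G418-selected cells were plated in DMEM/10% FBS for 16-24 h at 37C, then treated with compounds plus the PDE inhibitor […] (300 uM solution added) for 30 min at 37C. Intracellular cAMP was measured by HTRF after 30 min lysis at room temperature.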
Menin MLL FP FL – displaces fluorescein MLL peptide from human menin; Fluorescence polarization, fluorescein-MLL peptide displacement from menin; FP activity change, % at 61.4 µM; 290,000 tested, under 10 active; AID 1766; inconclusive = falling polarisation curve, or a change in total fluorescence; inactive = total fluorescence flat and polarisation flat or rising; no compound was filed as active; the % refers to the polarisation; negative = inhibition;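 note: % of control where 0% means no effect; inhibitors lower the polarisation; unlabelled MLL peptide was the positive control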
* marks the source's active call; other numbers are inactive results; ? = inconclusive; nt = not tested or not shown; [ ] = remark or other dose.

Molecule	TRPV1 PAM	gsp agonist	TRPML1 inh	Sfp PPTase inh	ClpP mod	gsp antagonist	Menin MLL FP FL
CCn1c(SCC(=O)Nc2ccc3c(c2)OCO3)nnc1C1CC1	9	0%	3	14%	nt	1%	4.2
COc1ccccc1Cn1c(=S)[nH]c2ccc(F)cc2c1=O	-6	?	10	9%	nt	29%	5.1
O=C(CC1C(=O)NCCN1Cc1cccc(F)c1)NC1CCCCC1 (stereo not drawn)	1	-9%	-19	2%	-0.7%	10%	nt
COc1cc(OC)cc(OCC(O)Cn2cnc(-c3ccccc3)c2)c1 (stereo not drawn)	-4	-4%	-15	5%	-1.1%	-14%	0.9
C/C(=N\NC(=O)c1ccoc1C)c1cccnc1	4	5%	-9	16%	0.3%	9%	-1.5
COc1ccc2[nH]c(=O)c(CN(Cc3cccnc3)C(=S)NCC3CCCO3)cc2c1 (stereo not drawn)	21	-2%[15.4 µM]	11	-7%	nt	nt	-2.5
CCCc1nnc2n1N=C(c1ccc(OC)c(OC)c1)CS2	-5	3%	-3	9%	-0.8%	9%	1.3
COc1ccc(CCNc2nc(N3CCCCC3)nc(N3CCCCC3)n2)cc1OC	-9	?	64	0%	-1.8%	-1%[15.4 µM]	2.7
CCCN(C(=O)c1cc(Cl)nc2ccccc12)C1CCS(=O)(=O)C1 (stereo not drawn)	22	-1%[15.4 µM]	-1	nt	nt	3%	nt
CCOc1ccccc1N(CC(=O)NCCc1ccccc1)C(=O)CCC(=O)Nc1ccccn1	-8	8%	6	21%	nt	-8%	1.0
COc1cc(/C=C2/SC(=S)N(CCC(=O)Nc3ccccc3)C2=O)cc(OC)c1OC	1	-4%	20	-29%	nt	-9%	nt
CCN(CC)C(=S)NC(=O)Cc1ccccc1	13	23%	6	2%	nt	5%	3.0
CN(Cc1ccccc1F)C(=O)c1ccccc1Sc1ccccc1C#N	1	?	-1	2%	2.0%	-17%	nt
Cc1cc(OCC(=O)Nc2ccc(S(=O)(=O)N3CCN(C)CC3)cc2)ccc1Br	7	3%[15.4 µM]	2	-3%	-11%	5%	1.4
Cc1ccc(C(=O)c2ccccc2C(=O)OCC(=O)N2C(C)CCCC2C)cc1 (stereo not drawn)	-1	33%	1	nt	0.0%	-18%	nt
Cc1ccc(S(=O)(=O)n2nc(-c3ccco3)nc2N)cc1	-5	0%[15.4 µM]	14	89µM*	nt	-2%	-3.3
CCOc1ccc(S(=O)(=O)N(CC)CC(=O)N2CCOCC2)cc1C	-5	5%	-10	13%	nt	6%	0.1
O=C(CSc1nnc(-c2ccccn2)n1Cc1ccco1)c1ccccc1	-13	24%	12	-15%	-1.0%	-3%	-0.3
CC(=O)N1SC(N)=NC1c1ccccc1 (stereo not drawn)	2	3%	-8	11%	3.8%	18%	0.6
COc1ccc([N+](=O)[O-])cc1NC(=O)Nc1ccc(OC)c(OC)c1	8	-34%	-11	-19%	nt	-14%	2.8
Nc1nc(-c2sc3nc4c(cc3c2N)CCCC4)nc(N2CCOCC2)n1	2	11%[15.4 µM]	19	19%	nt	-18%	-1.2
COc1ccc(C(=O)/C=C/C(=O)N(Cc2ccccc2)C(C(=O)NC2CCCCC2)c2ccncc2)c(O)c1 (stereo not drawn)	2	-8%	6	-2%	-1.2%	-15%	8.1
Cc1nc2ccccn2c1-c1ccnn1S(=O)(=O)c1ccc(F)cc1	-16	-4%	6	-6%	1.4%	-8%	1.7
COc1ccc(C(=O)OCCOc2ccccc2C(C)=O)c(O)c1	4	-21%[15.4 µM]	33	5%	nt	nt	-5.4
CCOC(=O)c1sc2nc(C)nc(SC(C)C(=O)NC3CC3)c2c1C (stereo not drawn)	-5	-33%[inhibitor]	1	nt	-2.3%	13%	nt
O=C(O)c1ccc(COc2ccccc2[N+](=O)[O-])o1	1	-35%[inhibitor]	-6	-16%	-1.2%	10%	3.9
CCN(CC(=O)N1CCOCC1)S(=O)(=O)c1ccc(Cl)cc1	7	1%[15.4 µM]	24	24%	0.5%	9%	nt
CC(=O)c1ccc(NC(=O)C2CC(=O)N(C(C)C)C2)cc1 (stereo not drawn)	-16	14%	10	19%	nt	7%	-3.2
CCOC(=O)C1(CCCc2ccccc2)CCN(C(=O)C(C)n2cncn2)CC1 (stereo not drawn)	-29	7%	4	-1%	nt	7%	1.2
COc1ccc(C2CC(=O)Oc3ccc(OC)cc32)cc1 (stereo not drawn)	nt	nt	4	nt	-0.4%	-6%	nt
Cc1ccc(Cl)c(NC(=O)CN(C)CC(=O)Nc2ccc(F)c(F)c2F)c1Cl	-16	-3%[15.4 µM]	15	19%	-2.4%	-23%	3.0
CC(C)OP(=O)(OC(C)C)C(Nc1ccccn1)c1ccc(F)cc1 (stereo not drawn)	-7	20%	24	14%	?	-8%	3.6
O=C(CN1C(=O)/C(=C/c2ccccc2F)Sc2ccccc21)NCCCN1CCOCC1	3	?	12	5%	-0.3%	7%	-4.0
O=C(CSc1nnnn1C1CC1)Nc1cc(S(=O)(=O)N2CCCC2)ccc1Cl	nt	23%	87	nt	nt	-23%	nt
O=C(O)CCc1ccc(-c2ccc(Cl)cc2)n1CCC(=O)O	29	0%	-13	-14%	-4.7%	-9%	4.6
Cc1cc(Cl)cc(C)c1OCC(=O)O	8	-28%	0	14%	-1.0%	0%	3.5
O=[N+]([O-])c1ccc(NNC(=S)Nc2ccccc2)cc1	4	5%	-8	3.5µM*	-0.1%	-40%	8.8
O=C(CCCc1nc(-c2ccccc2)no1)NCc1cccnc1	-1	-3%	-1	-6%	0.6%	-11%	2.0
CC(CNC(=O)CCc1ccccc1)NC(=O)CCc1ccccc1 (stereo not drawn)	nt	2%[15.4 µM]	5	nt	nt	11%	nt
C[C@H](CO)N1C[C@H](C)[C@@H](CN(C)C(=O)NC2CCCCC2)Oc2c(NS(=O)(=O)c3cn(C)cn3)cccc2C1=O	nt	nt	9	nt	-5.8%	16%	nt
Cc1ccc(NC(=O)c2cc(-c3ccc(C)o3)nc3ccccc23)nc1	-12	-4%	6	10µM*	-9.1%	-31%	7.0
Cc1cc(C)n(CC(O)CN2C(=O)NC(C)(C)C2=O)n1 (stereo not drawn)	-2	17%	4	-2%	-1.2%	13%	2.7
Cc1cc(C)c2[nH]c(C(=O)Nc3ccc(F)cc3Br)cc2c1	6	26%[15.4 µM]	1	-15%	-0.8%	-10%	1.6
COc1ccc(-c2coc3c(CN4CCOCC4)c(O)ccc3c2=O)cc1	-9	23%	11	11%	3.0%	-9%	0.2
O=C(O)CCC(=O)N1CCOc2ccc(Cl)cc21	-1	14%	-9	17%	0.2%	-5%	-3.4
CC1(C)CC(=O)C(=CN2CCN(C(=O)c3ccco3)CC2)C(=O)C1	-11	17%	2	-25%	-2.2%	-9%	4.2
CCOC(=O)c1nnn(-c2nonc2-n2cccc2)c1CN1CCCCC1	1	18%	61	-8%	-0.8%	-1%[15.4 µM]	1.0
Cc1[nH]c2ccccc2c1C(=O)CSc1cccc[n+]1[O-]	1	23%[15.4 µM]	-3	17%	nt	-2%	-1.3
COc1ccc(C(CC(=O)NCCN2CCOCC2)NS(=O)(=O)c2ccc(C)cc2)cc1 (stereo not drawn)	6	-4%	-15	28%	-0.5%	-2%	2.3
Cc1ccc(C(C)C)c(OCC(=O)NS(=O)(=O)c2ccc(Cl)cc2)c1	2	11%[15.4 µM]	3	29%	1.3%	?	nt
Clc1cccc(CNCCNCc2cccc(Cl)c2)c1	-15	13%[15.4 µM]	11	-3%	nt	13%	-1.7
CCn1c(=O)cc(SCC(=O)NCC2CCCO2)c2ccccc21 (stereo not drawn)	14	?	3	11%	?	-9%	2.0
O=C(c1cccs1)N1CCC(c2nc3ccccc3s2)CC1	-4	-22%	1	?	-1.7%	-14%	-0.5
CCCCCn1c(N2CCN(Cc3ccccc3)CC2)nc2c1c(=O)[nH]c(=O)n2C	-34	2%	-4	-12%	0.2%	5%	-0.1

4 entries from above, field by field.
Clc1cccc(CNCCNCc2cccc(Cl)c2)c1
  TRPV1 PAM: -15 | gsp agonist: 13%[15.4 µM] | TRPML1 inh: 11 | Sfp PPTase inh: -3% | ClpP mod: nt | gsp antagonist: 13% | Menin MLL FP FL: -1.7

CCn1c(=O)cc(SCC(=O)NCC2CCCO2)c2ccccc21 (stereo not drawn)
  TRPV1 PAM: 14 | gsp agonist: ? | TRPML1 inh: 3 | Sfp PPTase inh: 11% | ClpP mod: ? | gsp antagonist: -9% | Menin MLL FP FL: 2.0

O=C(c1cccs1)N1CCC(c2nc3ccccc3s2)CC1
  TRPV1 PAM: -4 | gsp agonist: -22% | TRPML1 inh: 1 | Sfp PPTase inh: ? | ClpP mod: -1.7% | gsp antagonist: -14% | Menin MLL FP FL: -0.5

CCCCCn1c(N2CCN(Cc3ccccc3)CC2)nc2c1c(=O)[nH]c(=O)n2C
  TRPV1 PAM: -34 | gsp agonist: 2% | TRPML1 inh: -4 | Sfp PPTase inh: -12% | ClpP mod: 0.2% | gsp antagonist: 5% | Menin MLL FP FL: -0.1
